# CapD inh = CapD enzyme inhibition. purified CapD enzyme, fluorescence intensity read-out; hits give low values; some hits fall short of the stated cut. AID 492967. z-score (test concentration not listed). actives 0.23% (n = 140,000);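 active means z-score under -4 in either of two replicates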;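 further: stock transfer was 100 nL into about 40 µL; score is relative to mean and spread of the plate; one replicate is shown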
# AID504770 = E. coli YBA685 growth inhibition, screen for V. cholerae RctB inhibitors | actives 0.27% (n = 130,000) | z-score (no concentration beside the values) | E. coli YBA685 rctB-dependent plasmid, OD600 growth, 3 h; hits give low values;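 active means z-score under -2 on both plates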;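 further: wells of about 30 µL received 100 nL stock; score is relative to mean and SD of the test wells; the first replicate is given; strong numbers were not always called active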
# An asterisk follows results filed as active; x = not tested or not shown; & = joins results of further samples. An unsorted share of the library. Share with any hit: about 0.37%.
SMILES,CapD inh,AID504770
COC(=O)c1cccnc1Oc1ccccc1,-0.955,x
Cn1c(=O)c([N+](=O)[O-])c(N2CCCCC2)c2ccccc21,-0.485,x
Cc1csc2nc(CSc3nc4ccc(Cl)cc4c(=O)n3CC(C)C)cc(=O)n12,x,1.15
O=C(CSc1nsc(SCC(=O)c2ccccc2)n1)c1ccccc1,0.36,-0.15
c1ccc(CNCc2ccc3c(c2)OCO3)cc1,-0.44,-1.25
O=C1c2nccnc2C(=O)N1c1cccc(C(F)(F)F)c1,-0.685,0.55
Cc1cc(N2CCN(S(=O)(=O)c3ccc(F)cc3)CC2)nc2c(C)cccc12,0.26,x
O=C1/C(=C\c2cccs2)Sc2ccc3ccccc3c21,0.46,x
COc1cccc(C(=O)Nc2nc3ccc(F)cc3s2)c1,0.995,-0.25
COc1cccc(CC(=O)Nc2ccc(-c3csc(C)n3)cc2)c1,-0.15,-0.65
CS(=O)(=O)Nc1nc2ccccc2[nH]1,x,0.65
CCC(C)C1COC(c2cccn2Cc2c(C)cc(C)cc2C)=N1 (stereo not given),-1.25,0
Cc1ccc(Cn2c3ccccc3c3nnc(NCC4CCCO4)nc32)cc1 (stereo not given),0.52,0.35
Cc1ccc(C(=O)Nc2c(C)cc(-c3ccc(Cl)cc3)oc2=O)cc1,0.89,x
Cc1onc(-c2ccccc2)c1C(=O)Oc1ccccc1,x,-0.15
Brc1cccc(-c2cn3ccccc3n2)c1,73.4,-0.75
CC(C)C(NC(=O)OCc1ccccc1)C(=O)N1CCOCCOCCOCC1 (stereo not given),x,0.25
CCCSc1n[nH]c(-c2ccc(C)cc2)n1,x,-0.9
O=C(c1ccccc1)C1CN(CC2CCCO2)CCC1(O)c1ccccc1 (stereo not given),-0.77,-2.05
CCNc1nc2ccccc2n1Cc1ccccc1F,0.14,2.15
CNCC1C(C)C=C(C)CC1C (stereo not given),-0.085,2.2
CCc1ccc(/C=C2\C(=N)N3N=C(S(C)(=O)=O)SC3=NC2=O)cc1,-0.01,-0.25
CC(=O)OCN1CCN(COC(C)=O)C1=O,0.34,-0.7
Cc1cc(C)n2nc(CC(=O)NCc3ccccc3Cl)nc2n1,0.67,-0.8
COc1cccc2c(OC(C)=O)coc12,3.38,x

# Already shown: four of the compounds above.
SMILES,CapD inh,AID504770
CCc1ccc(/C=C2\C(=N)N3N=C(S(C)(=O)=O)SC3=NC2=O)cc1,-0.01,-0.25
CC(=O)OCN1CCN(COC(C)=O)C1=O,0.34,-0.7
Cc1cc(C)n2nc(CC(=O)NCc3ccccc3Cl)nc2n1,0.67,-0.8
COc1cccc2c(OC(C)=O)coc12,3.38,x

# An excerpt from above in order of length of the SMILES, rising:
SMILES,CapD inh,AID504770
COC(=O)c1cccnc1Oc1ccccc1,-0.955,x
CCNc1nc2ccccc2n1Cc1ccccc1F,0.14,2.15
CCc1ccc(/C=C2\C(=N)N3N=C(S(C)(=O)=O)SC3=NC2=O)cc1,-0.01,-0.25
Cc1cc(N2CCN(S(=O)(=O)c3ccc(F)cc3)CC2)nc2c(C)cccc12,0.26,x

# Next part:
SMILES,CapD inh,AID504770
O=S(=O)(Cc1ccccc1Cl)NC1CCCCC1,-0.16,-0.9
CC(=O)Nc1ccc(NC(=O)CC2(CC(=O)O)CCCC2)cc1,0.8,-0.45
Cc1cc(C)n(C(=O)CCNC(=O)c2ccccc2)n1,-0.055,0.25
COc1ccc2nc(C)cc(OCC(=O)Nc3cc(C)cc(C)c3)c2c1,17.2,-0.45
O=C(NCCc1ccccc1)c1ccc(CS(=O)(=O)Cc2ccc(F)cc2)o1,-0.615,-0.4
CCOC(=O)c1cn(CC(=O)Nc2cccc(F)c2)nn1,-0.17,-0.95
Cc1ccc(NC(=O)CSc2nc3ccccc3c(=O)n2CCC(=O)N2CCN(c3ccccc3)CC2)cc1,0.415,x
Cc1ccc(S(=O)(=O)N2CCN(Cn3nc(C)sc3=S)CC2)c(C)c1,x,1.5
Clc1ccccc1N=C/C=C1\NN=NC1c1ccc(Br)cc1 (stereo not given),7.67,-0.05
COc1ccc(C(=O)N/N=C/c2ccc(N3CCCC3)cc2)cc1,2.17,x
CCC1CCCCN1C(=O)/C=C/c1ccccc1Cl (stereo not given),x,-0.65
O=C(O)c1ccccc1C(=O)N1CCCN(c2ncccc2C(F)(F)F)CC1,-1.03,0.85
CC(=O)Nc1c(NC(C)(C)C)c2ccccc2oc1=O,-1.16,-0.9
O=C(O)CNC(=O)Nc1ccccc1,x,-1
O=C1c2ccccc2-c2onc3c(Oc4ccc(Cl)cc4)cc(Oc4ccc(Cl)cc4)c1c23,-0.465,x
O=C(c1ccc(Cn2c(=S)[nH]c3ccc(Br)cc3c2=O)cc1)N1CCN(c2ccccn2)CC1,-0.85,x
CCCCc1ccc(NS(=O)(=O)CC(C)C)cc1,0.775,0.15
CCCc1cc(C(=O)Nc2ccc(CC)cc2)no1,0.455,0.9
CN(C)c1cccc(C(=O)Nc2cc(C(F)(F)F)ccc2-n2ccnc2)c1,0.41,-1
CCS(=O)(=O)N1CCC(C(=O)OCC(=O)c2ccc(Br)cc2)CC1,-0.265,-0.85
COC(=O)c1sccc1NC(=O)COc1ccc(Cl)c2ccccc12,0.46,x
Cc1cc(C(=O)CSc2nnc(C(F)(F)F)n2C)c(C)n1Cc1ccco1,x,-0.25
CCN(CC)c1ccc(C(=O)OCC(=O)c2ccccc2)cc1,-0.485&-0.055,-0.8&1.9
O=c1n(-c2cccc(Cl)c2)c(=O)n2n1CCC2,0.075,-0.75
CSc1nc(C)cc(SCCOC(=O)Nc2ccccc2)n1,-0.525,-0.75

# The closing three records of the part before open the next one:
SMILES,CapD inh,AID504770
CCN(CC)c1ccc(C(=O)OCC(=O)c2ccccc2)cc1,-0.485&-0.055,-0.8&1.9
O=c1n(-c2cccc(Cl)c2)c(=O)n2n1CCC2,0.075,-0.75
CSc1nc(C)cc(SCCOC(=O)Nc2ccccc2)n1,-0.525,-0.75
COc1cc2ncnc(NC3CCCCC3)c2cc1OC,11,0.95
O=C(CSc1nnc(-c2ccncc2)o1)N1CCCC1,x,-0.15
C/C(Cl)=C/Cn1c(SCc2cccc(Br)c2)nc2c1c(=O)[nH]c(=O)n2C,-0.205,x
O=C1CCC(=O)N1CCSSCCN1C(=O)CCC1=O,x,0.85
CCNc1nc(-c2cc(C)n(-c3ccc4c(c3)OCCO4)c2C)cs1,x,1.05
Cc1cccc(C(=O)NNc2nc3ccccc3nc2Cc2ccccc2)c1,1.83,x
CSc1sc(Br)c2c1C(=O)CC(C)(C)C2,0.11,x
Cc1ccc2c(c1)N(C(=O)CN1C(=O)c3ccccc3C1=O)C(C)(C)c1ssc(=S)c1-2,-0.81,x
O=C(COc1ccc(-c2nc3ccccc3s2)cc1)N1CCOCC1,x,-0.95
N#Cc1c(SCc2ccc(Cl)cc2)nsc1Nc1ccc(Cl)cc1,-1.55,x
NC(=O)COc1ccc(C2c3c(oc4ccccc4c3=O)C(=O)N2CCCO)cc1 (stereo not given),-0.05,-0.1
COc1cc(CN2CCN(CCOC(=O)NNC(=O)Cn3nnc(-c4cccc([N+](=O)[O-])c4)n3)CC2)cc2c1OCO2,-0.855,x
CCCCNS(=O)(=O)c1ccc2c(c1)nc(CCC)n2CCCC,x,-0.9
Cc1cn(CCC(=O)NCc2ccc3c(c2)OCO3)c2ccccc12,-0.66,0.1
OC(COc1ccccc1Br)CN1CCNCC1 (stereo not given),0.17,-0.75
CC(SCc1ccccc1)C(=O)NC1CCCC1 (stereo not given),0.21,-0.95
O=C(O)C1CCN(C(=O)NC2CCCCC2)CC1,0.09,-0.5
CS(=O)(=NC=C(C#N)C#N)c1ccc(Cl)cc1 (stereo not given),0.585,0.85
c1ccc(Cc2nc3c4c(-c5ccccc5)c(-c5ccccc5)oc4ncn3n2)cc1,7.47,x
CCOC(=O)c1c[nH]c2ccc(C(F)(F)F)cc2c1=O,0.07&-0.7,0.3
COc1ccccc1C1CCN(S(=O)(=O)c2cc(C(F)(F)F)cc(C(F)(F)F)c2)CC1,0.335,x
CC(CS(=O)(=O)c1ccc(Cl)cc1)C(=O)O (stereo not given),-0.195,x
CCOc1ccc(NC(=O)CSc2nc3cc(C(=O)NCC4CCCO4)ccc3c(=O)n2Cc2ccco2)cc1 (stereo not given),0.87,x
COC(=O)C1CCN(CC(O)COCc2ccc(OC)c(OC)c2)CC1 (stereo not given),x,-0.95
Cn1nc(C(F)(F)F)c(-c2ccccc2)c1NS(C)(=O)=O,0.905,0.05
# Following part.
SMILES,CapD inh,AID504770
N#Cc1c(N)nc(SCC(=O)Nc2ccc([N+](=O)[O-])c3ccccc23)c(C#N)c1-c1ccco1,-0.015,x
C#CCN1CCS(=O)(=O)CC1,0.48,-0.5
COCCN(C(=S)Nc1cc(F)cc(F)c1)C1CCN(C(C)=O)CC1,0.09,0.1
O=C1OC(c2ccc(Cl)c([N+](=O)[O-])c2)=N/C1=C\c1cc(Br)ccc1F,-0.255,x
Cc1cc(C)n2c(SCc3ccccc3)nnc2n1,-0.11,-0.5
CCCOc1ccc(C(=O)Nc2ccc(NC(=O)c3ccco3)cc2)cc1,-0.615,-0.25
CC1CCCC(NC(=O)CCn2cnc3onc(-c4ccc(F)cc4)c3c2=O)C1C (stereo not given),-1.8,-0.1
Cc1nc(-c2ccccc2)sc1C(=O)CSc1ccc(Cl)cc1Cl,-0.635,x
COc1cc(CC(=O)Nc2cc(Cl)ccc2Sc2nncn2C)cc(OC)c1OC,x,0.7
CCc1nnc2n1NC(c1ccccc1)C(C(=O)Nc1ccccc1)S2 (stereo not given),0.465,-0.35
O=C(Cn1c(=O)n(Cc2ccco2)c(=O)c2oc3ccccc3c21)Nc1cccc(Cl)c1,4.22,-0.85
O=C1CCCCC1Sc1nnc(-c2ccc3c(c2)OCO3)n1-c1ccccc1 (stereo not given),x,0.05
NC(=O)c1c(NC(=O)CCN2C(=O)c3ccccc3C2=O)sc2c1CCC2,-1.62,x
O=C(CSc1c2c(nc3ccccc13)CCC2)Nc1cccc(Cl)c1,0.125,2.3
O=C(C1=C(Nc2ccc(O)cc2)CCCC1)C(F)(F)F,-0.83,-0.6
CCOC(=O)N1CCN(C(=O)CSc2ccccc2)CC1,0.105,1
NC(=O)c1cc2n(n1)C(C(F)(F)F)CC(c1ccc(Cl)cc1)N2 (stereo not given),x,-0.5
O=C(O)c1ccc(-c2nc3ccccc3[nH]2)cc1,x,-0.15
N#Cc1cccn1-c1nccs1,-0.43,-0.45
CCOc1ccc(C2=NN3C(C2)c2cccc(OCC)c2OC3c2ccc(OC)c(OC)c2)cc1 (stereo not given),-0.345,x
CCCn1c(=O)/c(=C\c2ccco2)s/c1=C(/C#N)c1nc2ccccc2s1,x,-0.95
CC(=O)C1C(=O)c2cccc([N+](=O)[O-])c2C1=O (stereo not given),-1.64,x
Cc1ccc(N2C(=O)CC(N3CCC(NS(=O)(=O)c4ccccc4)CC3)C2=O)cc1 (stereo not given),-0.055,1.15
O=c1oc2c(CN3CCCC3)c(O)ccc2c2c1CCCC2,70,-0.75
O=C(Nc1ccncc1)c1cc(-c2ccccc2)oc1C(F)(F)F,0.02,0
# Remaining list, next part
SMILES,CapD inh,AID504770
CCOc1ccccc1N1CCN(CC(=O)C(C#N)c2nc(C)cs2)CC1 (stereo not given),x,-0.2
COC(=O)c1ccc(N=Nc2sc3ccccc3c2O)cc1,0.73,0.6
COc1ccc2ccccc2c1CN1CCN(S(=O)(=O)c2cccc(F)c2)CC1,-0.51,x
COc1cc(C#N)ccc1OCC(=O)c1cc(C)n(C)c1C,x,0.35
O/N=C(\C=N\O)C12CC3CC(CC(C3)C1)C2,-0.075,-0.5
Cc1ccc(S(=O)(=O)NCC(c2cccnc2)N(C)C)cc1 (stereo not given),x,-0.35
CCOC(=O)c1nnc(-c2ccc(CN3CCc4ccccc4C3)cc2)o1,0.36,0.1
COc1ccc(C2=[N+]([O-])C(C)(C)C(c3ccccc3)=N2)cc1,-0.355,-0.6
CC1=NC2(CCNCC2)N=C1c1cccc(C(F)(F)F)c1,-0.145,x
c1ccc(CCN2CNc3nc4ccccc4n3C2)cc1,x,0.95
Cn1cc(Br)c(NC(=O)/C=C/C(=O)O)n1,2.12,0.15
CC1(C2(C)NC(=S)N(c3ccccc3)N2)COCOC1 (stereo not given),0.365,-0.5
CC(C)Oc1ccc(CSCCN)cc1,x,-0.35
NNC(=O)c1ccc(COc2ccccc2)o1,x,-1
O=C(NCc1ccco1)Nc1cccc2ccccc12,6.27,x
Cc1cc(C)cc(OCC(=O)OCC(=O)c2ccc3c(c2)NC(=O)CO3)c1,x,1.25
CCOC(=O)C1CCN(C(=O)N2c3ccccc3Sc3ccccc32)CC1,-0.285,-0.8
CCN(CC)C(=O)COc1ccc(Br)cc1Cl,0.05,-0.6
Cc1ccc(NC(=O)c2ccc(=O)n(Cc3ccc(F)c(F)c3)c2)cc1C,-0.365,x
O=C(OCc1ccc([N+](=O)[O-])cc1)C1CCCN1S(=O)(=O)c1cccc2nonc12 (stereo not given),0.215,x
COc1ccc(OCC(=O)Nc2ccccc2C(=O)N2CCOCC2)cc1,0.965,-0.8
CCOC(=O)c1ccc(-n2c(=S)sc3c2nc(SCC(=O)NCc2ccco2)n2c4ccccc4nc32)cc1,14.9,x
Cc1nc(SCC(=O)N(c2ccccc2)C2CCS(=O)(=O)C2)n(CC(C)C)c1C (stereo not given),x,-0.1
CC(=O)Nc1ccc(OCC(O)CN2CCN(c3ccc(F)cc3)CC2)cc1 (stereo not given),0.04,-0.4
O=C(NNC(=O)C1CC(c2cccnc2)=NO1)Nc1ccc(Cl)cc1 (stereo not given),-0.07,x
O=C(/C=C/c1ccc(-c2cccs2)s1)N1CCSCC1,0.22,-0.2
CCN1CCCC1CNS(=O)(=O)c1c(F)cccc1F (stereo not given),-0.115,x
COc1ccc(-c2nnc3sc(CN4CCCCC4)cn23)cc1,x,-1.45
Cc1cccc(-n2nnnc2SCCCC(=O)c2ccccc2)c1,x,-0.1

# High-throughput results (PubChem BioAssay)
